Bioassay records: PubChem BioAssay, several laboratories
HNF4A DNA FP = change in binding of human HNF4A to DNA, primary screen, biochemical, fluorescence polarization, FITC-DNA | Hepatocyte nuclear factor 4-alpha (Homo sapiens), P41235 | 1 h | activity change, % at 10 µM | 360,000 compounds, 0.3% hits | AID 1224865, 2016; in the data active = activity change above about 30%, passing the limit was not always enough;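 note: controls were the assay level and a saturating level of protein; the project sought stronger binding though the title names inhibitors; some compounds called inactive have numbers as strong as hits; positive values seem to mean higher polarization but the record does not say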
Target sequence (P41235 whole entry, looked up): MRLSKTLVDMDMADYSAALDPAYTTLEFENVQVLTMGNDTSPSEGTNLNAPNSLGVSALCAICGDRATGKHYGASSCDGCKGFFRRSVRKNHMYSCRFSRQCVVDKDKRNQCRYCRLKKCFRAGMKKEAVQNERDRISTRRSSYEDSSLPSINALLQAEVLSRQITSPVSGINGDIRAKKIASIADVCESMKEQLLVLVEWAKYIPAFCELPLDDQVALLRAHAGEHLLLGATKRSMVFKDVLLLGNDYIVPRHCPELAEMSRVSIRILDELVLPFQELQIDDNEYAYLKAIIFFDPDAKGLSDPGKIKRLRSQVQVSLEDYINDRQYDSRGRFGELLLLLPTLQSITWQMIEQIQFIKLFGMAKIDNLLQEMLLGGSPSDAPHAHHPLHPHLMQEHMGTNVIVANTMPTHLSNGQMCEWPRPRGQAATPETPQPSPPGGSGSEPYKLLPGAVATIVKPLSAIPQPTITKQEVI
ALR H2O2 inh = inhibitors of human ALR sulfhydryl oxidase, primary screen, biochemical, H2O2 detection, HRP-luminol luminescence, single point. 290,000 compounds, 3.8% hits. inhibition, % (no concentration beside the values). FAD-linked sulfhydryl oxidase ALR (Homo sapiens), P55789. purified ALR, DTT oxidation. AID 485317, 2010;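 active = mean and each replicate at 75% or more; inconclusive = only one of the two met; inactive = neither met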;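 note: stock transfer was 7.5 nL into about 7.5 µL; 0% = neutral wells and 100% = wells with inactivated enzyme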
Target sequence (P55789 whole entry, looked up): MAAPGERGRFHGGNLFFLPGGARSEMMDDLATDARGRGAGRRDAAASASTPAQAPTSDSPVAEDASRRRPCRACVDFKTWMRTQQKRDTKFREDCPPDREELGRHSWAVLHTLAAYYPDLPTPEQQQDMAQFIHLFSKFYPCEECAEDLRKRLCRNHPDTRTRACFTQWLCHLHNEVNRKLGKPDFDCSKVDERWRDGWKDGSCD
AF4-AF9 inh = inhibitors of AF4 peptide binding to AF9, primary screen, biochemical, AlphaScreen, biotin-AF4 peptide, FLAG-AF9, single point; Protein AF-9 (Homo sapiens), P42568; inhibition, % at 10 µM; 350,000 compounds, 0.47% hits;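 active = every replicate reaching a set inhibition limit, whatever the replicate mean, cut at about 25% in these data; inconclusive = mean inhibition reaches that limit but some replicates miss it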;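 note: 0% = plate neutral control median and 100% = total signal loss; the record names both 10 and 1 µM as test concentration; the first replicate is given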
Ecoli rRNA inh = reduced GFP signal of wild-type E. coli, primary screen, bacterial rRNA inhibitor project, GFP/RFP fluorescence, OD600, single point | E. coli WT GFP vs humanized-ribosome RFP mutants, 24 h; hits give low values; DMSO median 0, no signal -100 | GFP signal change (wild-type ribosome), % (no concentration beside the values) | 350,000 compounds, 1.6% hits | AID 720706, 2013;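 active = significant combined selectivity score with lowered wild-type GFP, culture density cut under 30%, mutant RFP and density less affected; inactive = any of these conditions unmet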; note: one replicate is shown; some compounds called inactive have numbers as strong as hits
Ecoli growth = E. coli growth inhibition, primary screen, OD600 | Escherichia coli growth, 23 h; hits give low values | OD600 absorbance (concentration not given with the values) | 330,000 compounds, 0.21% hits | AID 1053175, 2014;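 active = OD600 absorbance below the run mean of sample wells minus 3.6 SD, in any replicate, cut at about 0.56 in these data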;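 note: stock transfer was 300 nL into about 60 µL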
FGF22 binding = binders of human FGF22 protein, primary screen, FGF22 synaptogenesis inhibitor project, biophysical, thermal shift, single point. Fibroblast growth factor 22 (Homo sapiens), Q9HCT0. recombinant FGF22 thermal shift, SYPRO orange fluorescence; percent of sucrose octasulfate shift, DMSO zero. calls only at 9.99 µM. 340,000 compounds, 1.5% hits. AID 651658, 2012;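 active = melting point raised past a set limit in the mean and every replicate; inconclusive = no clear call; three in four hits are not shown here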
Target sequence (Q9HCT0 whole entry, looked up): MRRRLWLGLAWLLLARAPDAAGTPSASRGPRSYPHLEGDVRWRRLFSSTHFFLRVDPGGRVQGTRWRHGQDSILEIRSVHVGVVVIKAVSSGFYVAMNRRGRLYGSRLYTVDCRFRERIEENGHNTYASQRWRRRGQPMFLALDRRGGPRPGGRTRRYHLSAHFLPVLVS
Vif A3G = inhibitors of Vif binding to APOBEC3G peptide, primary screen, biochemical, TR-FRET, GST-Vif 1-94, biotin-A3G peptide, dose response retest (AID 1117319); Virion infectivity factor (Human immunodeficiency virus type 1 group M subtype B (isolate …; TR-FRET GST-Vif / biotin-A3G peptide binding; higher % means a stronger effect; test concentration not given here; strong numbers were not always called active; inhibition, %, or IC50 in µM where a hit was titrated; 260,000 compounds, 0.57% hits;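 active = above the screen mean plus three standard deviations and confirmed in dose response; inconclusive = results disagree or hit not tested in dose response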;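 note: Vif residues 1-94 fused to GST binding biotinylated APOBEC3G peptide 110-148; 0% = full assay without inhibitor and 100% = GST in place of GST-Vif; retest series ran down from 100 µM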
Ecoli rRNA inh OD600 = second read-out of Ecoli rRNA inh, no call of its own (marks repeat the call); OD600 change, %; measured here: OD600 growth;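 optical density of the mix in the first replicate; 0 = DMSO median and -100 = no signal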
Ecoli rRNA inh RFP = second read-out of Ecoli rRNA inh, no call of its own (marks repeat the call); RFP signal change, %; measured here: RFP humanized mutant strains;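 first replicate; 0 = DMSO median and -100 = no signal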
Starred values were filed as active, the others as inactive; i = inactive; ? = inconclusive; . = no result given; & = joins results of further samples.

SMILES	HNF4A DNA FP	ALR H2O2 inh	AF4-AF9 inh	Ecoli rRNA inh	Ecoli rRNA inh OD600	Ecoli rRNA inh RFP	Ecoli growth	FGF22 binding	Vif A3G
COc1nc(SC)nc(Cl)c1Cc1ccc(OC(C)C)cc1	3.5	6	-52	3	-1	-6.0	0.74	i	.
Cc1cccc(C(=O)OCC(=O)c2ccc(CC(=O)N3CCOCC3)s2)c1C	-7.2	.	3.0	-2	1	11	0.67	i	12%
CCC(=O)Nc1ccc2c(c1)OC[C@H](C)N(C(=O)Cc1cccnc1)C[C@@H](C)[C@H](OC)CN(C)C2=O	.	.	-1.1	4	12	0.0	.	i	.
CC(=O)c1ccc(NC(=O)C(C)O/N=C(\N)c2ccccc2)cc1 (stereo not drawn)	-3.1	.	2.6	-3	-11	0.3	0.69	i	.
Cc1nn(C)cc1NC(=O)c1ccc(Br)o1	1.3	4	.	.	.	.	0.7	.	.
Cc1cccc(CN2CCC(n3nccc3NC(=O)CCCc3ccccc3)CC2)n1	0.7	-12	0.0	-1	5	1.1	0.73	i	.
Cc1ccc(O)c(C(=O)c2cnn(-c3ccc(S(=O)(=O)N4CCOCC4)cc3[N+](=O)[O-])c2)c1	12	-4	-8.6	4	10	-3.3	0.66	i	-3%
O=C(C[C@H]1CC[C@H]2[C@@H](COC[C@@H](O)CN2C(=O)Nc2ccc(F)cc2)O1)NCCCN1CCOCC1	.	.	-29	5	23	-5.9	.	i	.
COC(=O)c1ccc(CNC(=O)c2ccc(S(=O)(=O)N(C)c3ccccc3OC)cc2)cc1	-2.6	0	-12	-1	-7	-0.2	0.68	i	-4%
O=C(C[C@H]1CC[C@@H](NS(=O)(=O)c2cccc(F)c2)[C@H](CO)O1)N1CCCCC1	.	.	-1.5	2	4	-1.2	.	i	.
CSC1=N/C(=C\c2ccc(C)o2)C(=O)S1	-0.7	2	.	.	.	.	0.72	.	?
CCCC#Cc1ccc([C@H]2[C@@H](C#N)N(C(=O)C3CCCC3)[C@H]2CO)cc1	.	.	-4.8	1	-1	-0.9	.	i	.
CCn1c(SCC(=O)NC2CCCCC2)nnc1-c1ccco1	-0.8	.	0.9	2	3	1.1	0.66	i	.
CCN(C(=O)CSc1n[nH]c(-c2ccccc2)n1)c1c(N)n(Cc2ccccc2)c(=O)[nH]c1=O	3.1	-2	-1.1	6	7	2.9	0.65	i	6%
Cc1ccc(OCC(=O)NC(=S)Nc2ccc(Br)cn2)cc1C	-1.1	.	0.3	-2	6	-1.6	0.74	i	-4%
COc1cc(C#N)c(NC(=O)CN2CCN(CCO)CC2)cc1OC	-1.7	.	-1.9	10	15	-0.8	0.7	i	-3%
CC[C@@]1(C(=O)OC)N[C@H](CN(C)C(=O)COC)[C@@H]2C(=O)N(C)C(=O)[C@@H]21	-1.3	.	-0.1	7	7	-4.9	0.69	i	0%
COc1ccccc1NC(=O)CC(=O)Nc1ccccc1OC	-4.5	-5	-1.2	-1	2	-1.1	0.62	i	0%
CCC(C)NC(=O)CN1C(=O)CSc2ccc(S(=O)(=O)N3CCCC3)cc21 (stereo not drawn)	4.1	.	-0.2	4	19	-1.8	0.66	i	.
COc1ccc(S(=O)(=O)Nc2ccc3c(c2)[C@H]2C[C@H](CC(=O)N(C)C)O[C@@H](CO)[C@H]2O3)cc1	.	.	0.4	2	7	-1.2	.	i	.
Cc1nc(SCC(N)=O)c([N+](=O)[O-])[nH]1	7.2	-16	2.0	20	4	-2.1	0.71	i	-4%
COc1ccc(C)cc1NC(=O)CCCN1C(=O)CCC1=O	3.5	-2	-0.5	.	.	.	0.68	i	10%
CCOC(=O)c1ccc(N/C(=N\S(=O)(=O)c2ccccc2C)c2ccccc2)cc1	3.3	-1	.	.	.	.	.	.	8%
O=C(Nc1ccc2nn(-c3ccccc3)nc2c1)c1cccnc1	-0.8	-1	.	.	.	.	0.74	.	-5%
N#CCSc1nc2ccccc2c2nc3ccccc3n12	2.9	-13	.	.	.	.	0.71	.	-24%
Remaining list, next part
SMILES	HNF4A DNA FP	ALR H2O2 inh	AF4-AF9 inh	Ecoli rRNA inh	Ecoli rRNA inh OD600	Ecoli rRNA inh RFP	Ecoli growth	FGF22 binding	Vif A3G
C[C@@H]1CN([C@@H](C)CO)C(=O)CCCn2nncc2CO[C@@H]1CN(C)Cc1ccc(O)cc1	.	.	-2.0	1	5	0.7	.	i	.
O=C(O)C1=CCCNC1	-2.2	-12	-0.4	5	12	-0.4	0.71	i	.
COc1cc(CN2C[C@@H](CO)O[C@@H](n3cnc4c(NC5CCC5)ncnc43)C2)cc(OC)c1OC	4.5	.	-0.8	2	5	-3.0	.	i	.
CCOC(=O)c1ccc(S(=O)(=O)N2CCN(CC(=O)NC(=O)NC(C)(C)C)CC2)cc1	0.1	-2	.	.	.	.	0.62	.	3%
O=C(CCc1ccccc1)Nc1nc2ccc(S(=O)(=O)N3CCOCC3)cc2s1	-3.5	-3	.	.	.	.	0.74	.	7%
O=C(C[C@H]1CC[C@@H]2[C@H](COC[C@H](O)CN2CCc2ccccc2)O1)NCCCN1CCOCC1	.	.	-0.8	5	12	0.0	.	i	.
COc1ccc(/C(C)=N\n2cnnc2)cc1	-3.3	-13	.	.	.	.	.	.	-3%
CCCc1cc(=O)n2[nH]c(-c3ccc(OC)cc3)nc2n1	-3.1	68	.	.	.	.	0.69	.	-2%
CC(NS(=O)(=O)c1ccc(Cl)cc1)C(c1cccs1)N1CCN(C)CC1 (stereo not drawn)	0.0	-3	.	.	.	.	0.62	.	1%
O=C(O)C1=C[C@@H](c2coc3ccccc3c2=O)C[C@@H](OCc2ccc(CO)cc2)O1	-3.9	70	-1.8	10	18	3.1	0.73	i	-2%
O=C(OCC(=O)N1CCCc2ccccc21)c1cccnc1Cl	2.2	2	-1.9	7	4	-0.4	0.69	i	.
NC(=O)COc1c(-c2ccc(Br)o2)oc2ccccc2c1=O	2.2	2	.	-19	-10	-4.7	0.69	.	.
CN(C)/C=C/C(=O)Oc1ccc(Cl)cc1Cl	-4.1	16	1.8	10	15	-1.2	.	i	-4%
Cc1ccsc1/C=N/Nc1nc(=O)[nH]nc1C	-2.1	-1	5.8	11	6	6.1	.	.	12%
COc1ccccc1CC(=O)Nc1ccc(S(=O)(=O)N2CCCCC2)cc1	4.5	-5	-0.3	-6	-6	1.6	0.72	i	.
O=C(O)CN1C(=O)C2C3CC(C2C1=O)C1C(c2ccc(Cl)cc2)c2sc(=O)[nH]c2SC31 (stereo not drawn)	0.8	15	1.6	0	-1	-1.6	0.72	i	9%
Cc1ccc(-c2nc3ccccc3[nH]2)cc1NC(=O)c1sc2ccccc2c1Cl	2.1	-13	.	.	.	.	0.73	.	27%
C[C@H]1CN([C@@H](C)CO)C(=O)Cc2cc(NC(=O)Nc3ccccc3)ccc2O[C@@H]1CN(C)CC1CCCCC1	.	.	5.3	6	-21	6.3	.	i	.
CCC(=O)N1CCC2(CC1)CN(C(=O)CN1CCOCC1)[C@H](CO)c1[nH]c3cc(OC)ccc3c12	.	.	1.2	4	7	-2.7	.	i	.
Cc1noc(C)c1NC(=O)N(C)C[C@@H]1Oc2ccc(N(C)C)cc2CC(=O)N([C@H](C)CO)C[C@@H]1C	.	.	-1.8	-1	-2	-0.9	.	i	.
COC(=O)[C@H](CCSC)NC(=O)Nc1ccc(C)cc1	2.9	-26	.	.	.	.	0.66	.	3%
O=C(NNS(=O)(=O)c1ccc(F)cc1)c1cc(Cl)ccc1O	-2.7	17	-1.6	-16	-7	-1.4	0.63	i	.
O=C(Nc1ncc(Cc2cccc(Cl)c2)s1)C1CCCO1 (stereo not drawn)	-0.2	-1	.	.	.	.	0.71	.	-4%
CCCCNS(=O)(=O)c1ccc2nc(-c3cccnc3)cc(C(=O)NCCCOCC)c2c1	.	-11	.	.	.	.	0.7	.	-25%
COc1cccc(C(=O)Nc2ccc(F)c(F)c2F)c1	2.6	-3	.	.	.	.	0.72	.	7%
The list goes on.
SMILES	HNF4A DNA FP	ALR H2O2 inh	AF4-AF9 inh	Ecoli rRNA inh	Ecoli rRNA inh OD600	Ecoli rRNA inh RFP	Ecoli growth	FGF22 binding	Vif A3G
Oc1ccccc1C1CC(c2cccs2)=NC(c2cccc(Br)c2)N1 (stereo not drawn)	-0.8	.	4.2	-51	-45	-13	0.7	i	17%
Cc1noc(C)c1NC(=O)N(C)C[C@H]1Oc2c(NC(=O)NC3CCCCC3)cccc2C(=O)N([C@H](C)CO)C[C@H]1C	.	.	-3.1	2	-2	-2.0	.	i	.
COc1ccc(C(=O)NNC(=O)c2ccc(S(=O)(=O)N3CCOCC3)cc2)cc1	-0.4	-2	-4.0	18	4	1.4	0.7	i	24%
Cc1c(C(=O)NCc2ccc3c(c2)OCO3)sc(=O)n1Cc1ccc(S(C)(=O)=O)cc1	2.2	.	5.1	5	12	-1.4	.	i	.
CCN(CC)C(=O)[C@H]1CC(CC(=O)NCC23CC4CC(CC(C4)C2)C3)C(=O)N2CCc3c([nH]c4ccc(OC)cc34)[C@]12C (stereo partly drawn)	-2.1	.	14	-5	-4	-1.9	0.72	i	-4%
COC(=O)[C@@]12C[C@@H](CC(=O)NCCc3ccccc3OC)C(=O)N(CCc3ccc(OC)c(OC)c3)C1=CCC(C)(C)C2	2.7	.	5.9	2	0	0.1	.	i	.
N#Cc1c(N)c(C(=O)c2ccccc2)n2c1CCC2	0.2	92*	.	.	.	.	0.68	.	?
COc1ccc(-c2ccc3c(c2)O[C@H](CN(C)C(=O)Nc2ccccc2F)[C@@H](C)CN([C@H](C)CO)S3(=O)=O)cc1	-1.6	.	-3.0&1.2	-1	2	6.6	.	i	1%
Cc1cc2c(cc1C)-n1nnnc1C(N1CCN(C(=O)OCc3ccccc3)CC1)C(=O)N2 (stereo not drawn)	-1.5	.	1.2	11	18	1.1	.	i	.
CCOCc1nnc(NC(=O)c2ccc(OC)cc2)s1	-0.9	0	.	.	.	.	0.66	.	?
N#C[C@H]1[C@@H](c2ccc(C#CC3CCCCC3)cc2)[C@H](CO)N1S(=O)(=O)c1ccccc1	.	.	1.5	0	1	0.4	.	i	.
COc1ccccc1S(=O)(=O)Cc1ccc(C(=O)NC(C)c2ccc3c(c2)OCCO3)o1 (stereo not drawn)	21	0	.	.	.	.	0.66	.	-1%
O=C1c2ccccc2NC(c2cnc3ccccc3n2)N1O (stereo not drawn)	-2.0	65	.	.	.	.	0.65	.	4%
O=C(C[C@@H]1C[C@H]2c3cc(NC(=O)Cc4ccncc4)ccc3O[C@H]2[C@@H](CO)O1)NCc1ccc(-c2ccccc2)cc1	.	.	-1.3	1	2	2.6	.	i	.
COc1ccc(S(=O)(=O)CCC(=O)NCc2ccc(C)o2)cc1	-1.0	86*	-10	1	-4	-0.1	0.68	i	.
Cc1ccc(NC(=O)C2CCCN(C3=NS(=O)(=O)c4ccccc43)C2)c(O)c1 (stereo not drawn)	4.7	-8	2.2	-4	3	7.0	0.68	i	-3%

Not all compounds are listed. The share of hits here may be higher or lower than overall.
